MT1-MMP act inh: inhibitors of human MT1-MMP activation. P50281. HT1080 RFP-PRO-GFP cells, GFP/RFP ratio fluorescence, overnight; percent of plate control window, DMSO zero. GFP/RFP ratio change, % at 20 µM. 360,000 tested, 0.061% active;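 active = GFP/RFP ratio change of at least 30% with cell ATP level not reduced by more than half and red fluorescence within 50% of control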; also: strong numbers were not always called active
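Material: RFP-PRO-GFP reporter HT1080 cells. Dosing: single-point 20 µM compound, 1% DMSO. Controls: DMSO and RFP-L50D-GFP cell wells. Timing: cells overnight before dosing, compound overnight, 37 °C, 5% CO2. Measure: GFP/RFP fluorescence ratio.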
PABP FP inh: blocks human PABP binding to poly(A) RNA. AID 2014. P11940. 290,000 tested, 1% active. inhibition, % at 35 µM. fluorescence polarization;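 active = 50% or more with normal probe brightness, or confirmed in later tests; inconclusive = above 50% with abnormal brightness, or retests that disagree; inactive = below 50% or failed in later tests; about a fifth of its hits are not listed in these tables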;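 also: calls also rest on retests at 20 µM and on dose response follow-up; controls were probe without protein and protein plus probe with vehicle; some compounds called inactive have numbers as strong as hits; many hits fall short of the cut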
Target sequence (P11940 whole entry, looked up): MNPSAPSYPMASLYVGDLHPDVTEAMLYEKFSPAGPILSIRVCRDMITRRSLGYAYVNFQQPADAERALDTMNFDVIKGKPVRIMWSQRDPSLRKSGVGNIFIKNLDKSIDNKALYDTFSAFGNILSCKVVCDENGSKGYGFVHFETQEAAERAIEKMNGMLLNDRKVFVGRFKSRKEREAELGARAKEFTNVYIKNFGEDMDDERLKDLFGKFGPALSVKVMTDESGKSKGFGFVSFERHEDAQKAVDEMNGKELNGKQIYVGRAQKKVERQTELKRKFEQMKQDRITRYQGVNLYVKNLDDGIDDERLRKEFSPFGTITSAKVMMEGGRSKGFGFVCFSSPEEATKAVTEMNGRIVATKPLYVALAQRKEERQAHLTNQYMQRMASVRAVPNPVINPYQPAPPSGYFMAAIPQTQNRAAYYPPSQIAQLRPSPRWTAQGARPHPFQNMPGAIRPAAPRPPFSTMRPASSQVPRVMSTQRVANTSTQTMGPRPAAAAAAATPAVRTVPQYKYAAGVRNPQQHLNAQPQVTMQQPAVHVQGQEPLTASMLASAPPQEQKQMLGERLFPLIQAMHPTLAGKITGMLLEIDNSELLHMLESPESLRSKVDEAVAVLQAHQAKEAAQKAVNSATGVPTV
eIF4H FP inh: inhibitors of RNA binding by human eIF4H. eIF4H fluorescence polarization binding assay. Q15056. AID 2012. inhibition, % at 35 µM. 290,000 tested, 0.94% active;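 active = 50% or more with normal probe brightness, or confirmed in later tests; inconclusive = above 50% with abnormal brightness, or retests that disagree; inactive = below 50% or failed in later tests; about a fifth of its hits are not listed in these tables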;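 also: calls also rest on retests at 20 µM and on dose response follow-up; 0% = protein and probe with vehicle and 100% = probe without protein; strong numbers were not always called active; many hits fall short of the cut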
CSC inhib: blocks cancer stem cells; 300,000 tested, 1.1% active; inhibition, % at 7.5 µM; cancer stem cell-like cells viability, luminescence; AID 2717;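 active = mean at 75% or more and at least half the replicates too; inconclusive = mean and replicates disagree; tested in HMLE shEcad cells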;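 also: 0% = median of negative and 100% = median of positive control wells; the first replicate is given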
Rce1 inh: blocks yeast Ras-converting enzyme; calls only; yeast membranes, quenched prenylated peptide cleavage fluorescence; 290,000 tested, 0.27% active; Q03530;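 active = fall in fluorescence gain of 50% or more versus controls, with final raw signal at or below 3038400; inconclusive = same 50% fall but final raw signal above 3038400; inactive = fall in fluorescence gain under 50%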;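 also: plate controls were neutral control wells for no effect and wells lacking membranes for full effect; tested at 10 µM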
Target sequence (Q03530 whole entry, looked up): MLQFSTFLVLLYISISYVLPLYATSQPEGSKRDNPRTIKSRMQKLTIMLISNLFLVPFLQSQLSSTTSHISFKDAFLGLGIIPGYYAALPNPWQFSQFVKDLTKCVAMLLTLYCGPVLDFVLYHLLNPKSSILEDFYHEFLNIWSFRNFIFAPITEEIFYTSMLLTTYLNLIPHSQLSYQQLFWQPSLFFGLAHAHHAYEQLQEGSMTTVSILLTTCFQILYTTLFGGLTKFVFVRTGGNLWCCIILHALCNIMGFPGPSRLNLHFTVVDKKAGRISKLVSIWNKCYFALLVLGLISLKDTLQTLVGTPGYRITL
Yeast UUG start: yeast start codon fidelity modulation. 350,000 tested, 0.13% active. activity score, % at 18.7 µM. S. cerevisiae UUG-firefly luciferase reporter, luminescence/redox ratio;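 active = replicate mean at a twofold rise or more, about +100% in these data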;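 also: firefly luciferase made from a UUG start codon reports start codon fidelity; reporter light over untreated wells divided by growth signal over untreated wells; some hits fall short of that in this replicate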
Env fusion inh: inhibitors of HIV Env-mediated cell fusion; HeLa-JRFL Env/CEM21 cell fusion, luciferase; inhibition, % at 12.3 µM; 360,000 tested, 1.1% active;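 active = mean replicate inhibition score of at least 50 and every replicate individually at or above 50; inconclusive = only one of the two criteria met; inactive = mean below 50 and not all replicates reaching 50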;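 also: 0% = plate neutral controls and 100% = maraviroc near 300 nM; one replicate is shown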
eIF4H FP inh retest: second read-out of eIF4H FP inh, no call of its own (marks repeat the call); inhibition, %; compound at 20 µM; confirmation average;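 mean of two retest wells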
PABP FP inh retest: recorded beside PABP FP inh, whose call it bears; inhibition, %; compound at 20 µM; confirmation repeats;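 mean of two retest wells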
MT1-MMP act inh RFP: further read-out of MT1-MMP act inh, marked with its call; RFP signal change, %; measured here: RFP expression control read;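 0 = vehicle wells; hits needed this value within 50% of zero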
* = called active by the depositor; i = inactive; ? = inconclusive; nt = no result given.

SMILES | MT1-MMP act inh | MT1-MMP act inh RFP | PABP FP inh | eIF4H FP inh | CSC inhib | Rce1 inh | Yeast UUG start | Env fusion inh | others
O=C(O)c1ccc2oc(=O)c(S(=O)(=O)c3ccccc3)cc2c1 | 0.0 | 2.7 | 5.0 | -4.1 | -4.7 | i | -2.7 | 16.1
Cn1c(SCC(=O)N2CCCCCC2)nc2c(c1=O)SCC2 | -0.2 | -3.7 | -14.6 | 8.7 | -15.1 | i | 0.5 | -6.7
COc1ccc(NC(=O)Nc2ccc(OCc3ccccc3)cc2)cn1 | -17.5 | -6.8 | ? | ? | 3.3 | i | -6.0 | 4.2
O=C(C1=C(O)C(=O)N(Cc2ccco2)C1c1cccnc1)c1cc2ccccc2o1 (centres undefined) | -2.5 | 7.3 | 16.9 | 1.7 | -7.7 | i | nt | nt
Cc1nn(S(=O)(=O)N2CCCCC2)c(C)c1Br | -0.4 | 4.2 | -1.5 | -7.4 | nt | i | -8.2 | nt
O=C(c1ccccc1)c1ccc2nc(-c3ccco3)c(-c3ccco3)nc2c1 | -7.3 | -5.9 | 77.7 | 96.5 | 4.6 | i | -6.0 | 0.1 | eIF4H FP inh retest=0.6;PABP FP inh retest=1.1
CC#CCCC(=O)N1C=Cc2ccccc2C1C#N (centres undefined) | 1.2 | 1.8 | 2.5 | -7.1 | -10.1 | i | -12.7 | -32.1
CN(NC1OC(=O)c2ccccc21)c1ncc(Cl)cc1C(F)(F)F (centres undefined) | 3.1 | 0.5 | -1.6 | -6.0 | 4.2 | i | -11.3 | 12.3
COc1ccc(C(=O)C2CCN(C(=O)Nc3ccc(C)cc3)CC2)cc1 | 3.5 | -3.0 | -0.4 | -0.9 | -5.9 | i | 7.7 | 11.0
CSc1ccccc1NC(=O)c1cccc(S(=O)(=O)N2CCN(C)CC2)c1 | 0.0 | -0.6 | 4.8 | 17.6 | 14.5 | i | -15.0 | -6.9
CC(C)(C)c1nnc2sc(SCC(=O)c3ccc(Cl)cc3)nn2c1=O | -11.4 | -3.5 | 5.6 | -4.6 | 3.5 | i | -14.2 | nt
COc1ccccc1C(=O)NNC(=O)C1CC=CCC1 (centres undefined) | -1.1 | 6.4 | 1.7 | 4.5 | 3.8 | i | -2.8 | -28.7
N#Cc1c(NCCN)nc(NCc2ccccc2)c2c1CCN(Cc1ccccc1)C2 | -10.7 | -4.9 | 72.3* | 61.9* | nt | nt | nt | nt
CC(=O)c1ccccc1OCC(O)Cn1ccnc1 (centres undefined) | -0.3 | 2.7 | -3.1 | -6.0 | -7.3 | i | -8.1 | -8.2
O=C(COC(=O)c1ccc(Cl)c(S(=O)(=O)N2CCCCC2)c1)NCC1CCCCC1 | -2.5 | 6.2 | nt | nt | -18.0 | nt | -17.9 | -1.0
CCOC(=O)N1CCN(C(=O)c2cc3c(=O)n4ccccc4nc3s2)CC1 | -0.2 | 3.0 | -8.3 | -7.2 | 6.6 | i | -17.2 | 2.4
Cc1cc(C)n2ncc(C(=O)O)c2n1 | -3.7 | -1.0 | -2.9 | 4.7 | -2.5 | i | nt | -6.8
Cc1ccc(C(=S)N2CCCCCC2)cc1 | 2.5 | 1.7 | 2.6 | -1.6 | 3.2 | i | -25.8 | -15.2
O=S(=O)(NCC(c1ccco1)N1CCN(c2ccccc2)CC1)c1ccc(F)cc1 (centres undefined) | 0.8 | -0.5 | 3.6 | -10.0 | nt | i | -5.2 | -31.6
C[C@H](NC(=O)c1cc2cc(Cl)ccc2n1C)C(=O)N1CCC[C@H]1C(=O)O | 1.8 | 1.5 | 17.1 | -6.9 | -4.5 | i | -25.5 | nt
CN(CC(=O)Nc1ccc2c(c1)OCCO2)S(=O)(=O)c1ccc(Br)s1 | -1.1 | 7.7 | -8.4 | -11.9 | 3.7 | i | 2.4 | nt
O=[N+]([O-])c1ccc2nc(-c3ccccc3)oc2c1 | 0.8 | 1.6 | -5.9 | -4.9 | -1.8 | i | -11.0 | -64.6
CN(CC(=O)NCCc1ccccc1)S(=O)(=O)c1ccccc1 | 1.6 | 4.1 | -2.7 | 11.4 | -6.3 | i | nt | -5.8
O=c1[nH]cnc2sc3c(c12)CCCC3 | -5.3 | -6.4 | -0.2 | -10.9 | -9.5 | i | -0.1 | -185.2
Cc1cc(NC(=O)CSc2nnc(-c3ccccc3)c(-c3ccccc3)n2)no1 | -13.7 | -20.2 | 6.8 | -8.5 | 48.2 | i | nt | 24.0
CCN(CC)S(=O)(=O)c1ccc(OC)c(NC(=O)CCS(=O)(=O)Cc2ccccc2)c1 | -2.6 | -0.5 | -6.5 | -5.7 | 1.1 | i | 0.1 | 5.8
Cc1onc(C(=O)NN)c1-c1csc(COc2ccccc2)n1 | -4.8 | 5.0 | -2.3 | -10.1 | -3.2 | nt | nt | 3.1
COCCCNc1nc2c(-c3cccc(C)c3)nnn2c2ccccc12 | 0.1 | 2.5 | -0.6 | 5.3 | 0.3 | i | -16.6 | nt
COc1ccc(C(C)=O)cc1COC(=O)CNC(=O)c1ccc(Cl)cc1 | 4.4 | 1.8 | -8.0 | -4.9 | -1.6 | i | nt | -10.0
CN(C(=O)CSc1nnc(CN2CCCC2)n1Cc1ccccc1)c1ccccc1 | -0.5 | 4.2 | nt | nt | -7.4 | i | -0.3 | -10.2
Cc1ccc(-c2nc(Nc3cccc(O)c3)c3ccccc3n2)cc1 | -3.7 | -2.7 | -3.5 | -1.0 | 111.7* | i | -10.1 | 3.4
O=C(CSc1nnc(-c2ccc(F)cc2)o1)N1CCCC1 | 2.1 | -1.9 | 7.8 | 2.5 | nt | i | -2.4 | -12.5
O=C(COC(=O)COc1ccccc1F)Nc1ccc(Cl)cn1 | 2.4 | 6.1 | 13.8 | -3.6 | -2.8 | i | -11.6 | 0.2
COc1cccc(C2CC(c3ccccc3)Nc3ncnn32)c1 (centres undefined) | 4.3 | 5.3 | -0.5 | 6.8 | -4.7 | i | -18.3 | -31.4
COC(=O)N1CCCc2cc(C)ccc21 | 1.6 | 0.2 | 5.0 | -2.7 | -8.6 | i | -13.7 | 1.7
O=C(CN(C(=O)CNC(=O)c1cccs1)c1ccccc1F)NC1CCCC1 | 4.1 | 4.4 | 5.2 | 0.6 | -32.9 | i | 3.3 | -2.6
Cc1cc(=O)n2nc(N3CCC(C(=O)Nc4cccc(Cl)c4C)CC3)sc2n1 | -3.7 | -1.4 | 3.5 | -9.4 | -11.0 | i | -7.1 | -4.7
CCOc1ccc(-c2cn3ccccc3n2)cc1[N+](=O)[O-] | 14.4 | 7.3 | -1.1 | -5.4 | 4.6 | i | nt | -40.8
Cc1ccc(S(=O)(=O)N2CCCCC2)cc1C(=O)N(CCc1ccccc1)Cc1ccccc1 | -11.2 | -10.4 | nt | nt | 17.1 | i | -10.3 | 34.7
S=c1[nH]c2cnc(Cl)nc2[nH]1 | 5.2 | 4.1 | nt | nt | nt | nt | -12.3 | 8.9
CC(C)CNC(=O)C1CCN(Cc2ccc(OCc3ccccc3)cc2)CC1 | 1.1 | -1.1 | 0.4 | 1.1 | 0.7 | i | -0.6 | -26.9
O=[N+]([O-])c1ccc(O)c(Nc2c([N+](=O)[O-])ccc3nonc23)c1 | 14.5 | -1.3 | 12.7 | -6.4 | 7.4 | i | nt | 5.0
Cc1cc(NC(=O)COn2nnc3ccc(S(C)(=O)=O)cc32)ccc1Br | -2.5 | -6.4 | 1.3 | 0.5 | 1.1 | i | nt | 5.5
COc1cc(/C=C/C(=O)c2cccc([N+](=O)[O-])c2)cc(OC)c1OC | -8.9 | -8.7 | 13.5 | -4.0 | 8.9 | i | nt | 9.6
COc1ccc(CN2C(=O)CN=C2Nc2cccc(C)c2C)cc1 | -8.1 | -6.8 | 4.1 | -5.6 | nt | i | -5.2 | nt
CC(=O)c1ccc(NS(=O)(=O)c2ccc([N+](=O)[O-])cc2)cc1 | 1.9 | -3.2 | nt | nt | nt | nt | -0.6 | -28.8
COc1ccc(S(=O)(=O)N2CCC(C(=O)NCCCc3ccccc3)CC2)cc1 | 1.0 | 0.6 | nt | nt | -11.1 | i | 10.6 | -2.9
C[C@H]1CN=C(N(C)C)N1CCc1ccc(F)cc1 | 0.9 | 7.7 | nt | nt | -17.3 | nt | -4.8 | -23.1
Cc1ccccc1Nc1nc(Cl)nc(NC(C)(C)C)n1 | -8.0 | -23.8 | nt | nt | nt | nt | -1.6 | 6.4
COc1ccccc1C(=O)NNC(=O)c1ccc(C)cc1 | 2.1 | 2.3 | 2.7 | -11.3 | 30.9 | i | -20.2 | -4.1
CC(C)c1nc(SCC(=O)Nc2nc3c(s2)CCCC3)c2ccccc2n1 | 4.7 | -1.0 | 0.1 | -6.3 | -11.0 | i | -10.1 | -14.6
CCn1c(=O)n(CC)c2cc(N3CCCC3)c(NC(=O)c3cccc(Cl)c3)cc21 | 0.2 | -4.9 | -17.0 | -10.0 | 6.0 | i | -8.6 | 7.1
CN(CC(=O)Nc1ccc(Cl)c(C(F)(F)F)c1)C(=O)C1CCN(C(=O)c2ccc(Cl)cc2)CC1 | -1.2 | -13.5 | nt | nt | nt | nt | 21.1 | 2.1
C=CCOc1ccc(CNCc2cccnc2)cc1OCC | 0.0 | -2.0 | 8.3 | -16.9 | -5.1 | i | -19.1 | -4.2
Cc1ccccc1-c1nc(CS(=O)(=O)CC(=O)Nc2cc(F)ccc2F)c(C)o1 | 0.2 | -4.6 | -1.4 | 7.8 | 17.0 | i | -9.0 | 1.6
CC(=O)N1CCOc2ccc(S(=O)(=O)N3CCC(C(=O)NCc4ccc(Cl)cc4)CC3)cc21 | 1.3 | 1.1 | nt | nt | nt | nt | -2.6 | -120.2
O=C(CNc1ccccc1)N/N=C/c1ccc2c(c1)OCCO2 | -2.2 | 0.4 | 2.9 | -18.6 | nt | i | nt | nt
Cc1c(Cl)cccc1NC(=O)c1cc(C2CC2)on1 | -1.3 | 1.7 | 9.5 | 39.3 | -8.2 | i | 9.7 | -35.3
COCCn1c(SCC(=O)NCc2ccco2)nnc1-c1c[nH]c2ccccc12 | -0.9 | 6.4 | -4.4 | 0.9 | 3.1 | i | 1.6 | 14.5
COc1ccc2c(c1)nc(SCC(C)O)n2C (centres undefined) | 2.5 | 5.0 | 12.6 | -0.8 | -11.5 | i | -22.0 | -1.1

Carrying on.
SMILES | MT1-MMP act inh | MT1-MMP act inh RFP | PABP FP inh | eIF4H FP inh | CSC inhib | Rce1 inh | Yeast UUG start | Env fusion inh | others
COc1ccc(C(=O)Nc2ccc(Cl)c(S(=O)(=O)Nc3ccccc3OC)c2)cc1 | -13.6 | -29.3 | -1.8 | 1.1 | 9.2 | i | -20.2 | nt
Cc1ccc(NCCC(=O)c2cccs2)cc1Cl | -1.2 | -1.2 | -1.0 | 2.3 | 6.5 | i | -10.9 | -93.0
COc1ccc2c(C)cc3nnnn3c2c1 | -2.5 | 0.1 | 6.8 | -8.6 | 10.2 | i | -7.3 | -11.9
CCOc1ccccc1N1CCN(CC(O)COCc2cccs2)CC1 (centres undefined) | 2.2 | 2.7 | 2.5 | -0.3 | -3.4 | i | -12.6 | 1.2
COc1cccc(OC)c1OCCNCC1CSc2ccccc2O1 (centres undefined) | -1.8 | 0.2 | nt | nt | -1.0 | i | -15.3 | i
CCOc1ccccc1NC(=O)C1CCCN(S(=O)(=O)c2ccccc2)C1 (centres undefined) | 0.3 | -4.8 | -2.0 | -5.4 | 15.9 | i | -4.2 | 10.0
O/N=C1\CCCc2ccc(Cl)cc21 | -3.1 | -3.3 | -10.1 | 3.0 | -7.1 | i | nt | -7.3

The list is partial. The share of hits here may be higher or lower than overall.
